# Source: PubChem
# RanGTP-Imp inh: disruptors of Ran-importin-beta complex formation – biochemical, FRET, CFP-Ran, YFP-importin-beta, homogeneous, primary screen | inhibition, % (concentration not given with the values) | cell-free CFP-Ran/YFP-importin-beta FRET ratio | 1.1% of 300,000 active;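 active = most replicates above 15%; inconclusive = exactly half above 15%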;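 note: 0% = DMSO wells and 100% = Ran loaded with GDP instead of GTP; wells of about 40 µL received 100 nL stock; the first replicate is given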
# FGF22 binding: shifts melting point of recombinant human FGF22; AID 651658; recombinant FGF22 thermal shift, SYPRO orange fluorescence; percent of sucrose octasulfate shift, DMSO zero; Q9HCT0; calls only at 9.99 µM; 1.5% of 340,000 active;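 active = melting point raised past a set limit in the mean and every replicate; inconclusive = no clear call; three in four hits are not shown here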
# Target sequence (Q9HCT0 whole entry, looked up): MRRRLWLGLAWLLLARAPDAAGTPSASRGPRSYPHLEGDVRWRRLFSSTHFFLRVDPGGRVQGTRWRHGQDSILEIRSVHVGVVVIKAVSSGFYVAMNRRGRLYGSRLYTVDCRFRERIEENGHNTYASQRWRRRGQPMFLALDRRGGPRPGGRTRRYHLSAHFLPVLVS
# T cruzi repl: blocks replication of Trypanosoma cruzi; T. cruzi beta-gal in NIH3T3, luminescence, 90 h; inhibition, % (concentration not given with the values); 1.4% of 300,000 active;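 active = mean inhibition across valid replicates above about 55%, limit read from the data; inconclusive = mean below that limit but half or more replicates reach it; inactive = mean below it, under half of replicates reach it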;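 note: signal also drops with host cell toxicity which is not excluded here; 0% = plate median of DMSO wells and 100% = zero luminescence signal; higher percent means less beta-gal luminescence so fewer parasites; stock transfer was 50 nL into about 50 µL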
# MLL AF4-AF9 inh: blocks AF4 peptide binding to human AF9; P42568; AlphaScreen, biotin-AF4 peptide binding to FLAG-AF9; inhibition, % at 10 µM; 0.47% of 350,000 active; AID 651704;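 active = every replicate reaching a set inhibition limit, whatever the replicate mean, cut at about 25% in these data; inconclusive = mean inhibition reaches that limit but some replicates miss it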;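 note: 0% = plate neutral control median and 100% = total signal loss; the record names both 10 and 1 µM as test concentration; the first replicate is given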
# Target sequence (P42568 whole entry, looked up): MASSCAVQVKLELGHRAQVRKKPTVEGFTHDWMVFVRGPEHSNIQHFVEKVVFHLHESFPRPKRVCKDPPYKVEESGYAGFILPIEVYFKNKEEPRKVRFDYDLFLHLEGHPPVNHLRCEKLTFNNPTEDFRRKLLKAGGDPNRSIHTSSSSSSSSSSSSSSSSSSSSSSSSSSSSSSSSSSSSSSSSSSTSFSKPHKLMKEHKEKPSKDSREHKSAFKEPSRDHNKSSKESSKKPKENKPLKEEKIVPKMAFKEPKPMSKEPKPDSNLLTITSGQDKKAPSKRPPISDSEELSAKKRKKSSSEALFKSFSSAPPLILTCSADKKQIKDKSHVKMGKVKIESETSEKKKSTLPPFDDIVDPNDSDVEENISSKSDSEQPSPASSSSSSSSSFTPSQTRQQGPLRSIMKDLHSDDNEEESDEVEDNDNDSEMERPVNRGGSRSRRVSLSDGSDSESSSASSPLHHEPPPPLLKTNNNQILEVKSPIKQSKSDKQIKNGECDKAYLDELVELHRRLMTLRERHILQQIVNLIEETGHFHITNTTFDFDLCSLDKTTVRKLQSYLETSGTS
# Beta apoptosis: blocks beta cell apoptosis. INS-1E cytokine-induced death, ATP luminescence, 48 h; percent of positive-control rescue, neutral wells zero. AID 435005. 0.8% of 300,000 active. protection from apoptosis, % (no concentration beside the values);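 active = all replicates at 75% or more, or half of them and the mean; inconclusive = half reach 75% but not the mean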;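 note: 0% = cytokine-treated negative control wells and 100% = positive control rescue; higher means more ATP so stronger rescue from cytokine killing; wells of about 40 µL received 100 nL stock; the first replicate is given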
# ALR inh: human ALR oxidase inhibition via reduced H2O2 | purified ALR, DTT oxidation, H2O2 HRP-luminol luminescence | AID 485317 | inhibition, % (test concentration not listed) | 3.8% of 290,000 active;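 active = mean and each replicate at 75% or more; inconclusive = only one of the two met; inactive = neither met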;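 note: stock transfer was 7.5 nL into about 7.5 µL; 0% = neutral wells and 100% = wells with inactivated enzyme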
# Target sequence (P55789 whole entry, looked up): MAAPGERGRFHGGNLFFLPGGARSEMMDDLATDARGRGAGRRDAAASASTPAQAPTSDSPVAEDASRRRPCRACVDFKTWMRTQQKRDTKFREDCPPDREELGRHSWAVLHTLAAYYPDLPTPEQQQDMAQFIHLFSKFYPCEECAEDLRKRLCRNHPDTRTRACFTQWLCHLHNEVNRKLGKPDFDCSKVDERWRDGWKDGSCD
# Ecoli rRNA inh: inhibitors of bacterial rRNA selective over humanized ribosomes; 1.6% of 350,000 active; E. coli WT GFP vs humanized-ribosome RFP mutants, fluorescence, 24 h; active compounds read low; DMSO median 0, no signal -100; AID 720706; GFP signal change (wild-type ribosome), % (test concentration not listed);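 active = significant combined selectivity score with lowered wild-type GFP, culture density cut under 30%, mutant RFP and density less affected; inactive = any of these conditions unmet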; note: one replicate is shown; some compounds called inactive have numbers as strong as hits
# Calb FLC: affects C. albicans growth with fluconazole; C. albicans CaCi-2 (fluconazole-resistant clinical isolate) + fluconazole, Alamar Blue growth, 48 h; growth inhibition, % (test concentration not listed); 0.57% of 300,000 active; AID 1979;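 active = most replicates above 75%; inconclusive = exactly half above 75%; inactive = most below 75%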;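 note: all wells also contain fluconazole at 8 µg/ml as a sub-toxic cotreatment; 0% = median of DMSO wells and 100% = median of geldanamycin control wells; wells of about 8 µL received 7.5 nL stock; the first replicate is given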
# Ecoli rRNA inh OD600: recorded beside Ecoli rRNA inh, whose call it bears; OD600 change, %; measured here: OD600 growth;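 optical density of the mix in the first replicate; 0 = DMSO median and -100 = no signal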
# Ecoli rRNA inh RFP: second read-out of Ecoli rRNA inh, no call of its own (marks repeat the call); RFP signal change, %; measured here: RFP humanized mutant strains;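 first replicate; 0 = DMSO median and -100 = no signal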
# An asterisk follows results filed as active; i = inactive; ? = inconclusive; · = no result given; & = joins results of further samples. Some of the compounds tested; the hit share may differ from the screen's.
SMILES,RanGTP-Imp inh,FGF22 binding,T cruzi repl,MLL AF4-AF9 inh,Beta apoptosis,ALR inh,Ecoli rRNA inh,Ecoli rRNA inh OD600,Ecoli rRNA inh RFP,Calb FLC
Cn1c(C(=O)N2CCOCC2)cc2c(=O)n3ccccc3nc21,3.8,i,-16,-1.1,-3,·,9,20,1.9,1
O=C(Cc1cccc2ccccc12)Nc1ccc2oc(-c3ccccc3)nc2c1,-3.2,·,32,·,3,-6,·,·,·,40
C[C@@]12CCC=C[C@H]1[C@H](c1ccc3ccccc3c1)N(Cc1ccccc1)C2=O,2.2,i,22,-21,-8,·,-1,-2,4.2,-5
O=C(COC(=O)c1cc(Cl)ccc1O)NCCC1=CCCCC1,2.8,i,0,0.6,-1,-22,5,16,-1.7,-7
CC(C)(C)NC(=O)Cn1ccc(=N)c2ccccc21,0.6,·,-19,·,-8,-2,·,·,·,4
CC(C)C(=O)c1ccc(O)c(O)c1,1.7,i,-15,1.8,-4,99*,-5,5,12,-7
COc1ccc(CN2CCN(C(=O)c3cccs3)CC2)c(OC)c1OC,-3.4,·,·,·,-5,-3,·,·,·,-2
CCCCn1c(SCC(=O)Nc2cccc(OC)c2)nc2ccc(N3CCOCC3)cc2c1=O,1.6,·,18,·,-4,99*,·,·,·,96*
CCOCCCNC(=O)C(NC(=O)CNC(=O)c1ccccc1)c1ccc(OC)cc1 (centres undefined),-4.9,i,-1,-0.4,-8,-16,-1,-3,-1.4,-4
O=C(CN(C(=O)CCC(=O)Nc1nccs1)c1ccc(F)cc1)NCCc1ccccc1,-0.3,i,9,1.2,5,0,3,6,-2.9,5
Cc1cc(-c2nnco2)c(C)n1-c1ccccc1,-2.8,·,-5,·,1,-4,·,·,·,7
O=C(NCc1ccncc1)C(=O)N/N=C/c1cccnc1,2.5,i,-6,-0.3,-3,-12,9,17,1.8,-12
Cc1nn(Cc2ccccc2)c(C)c1C(=O)NCC(c1cccs1)N1CCOCC1 (centres undefined),·,i,-2,-22,-4,2,-1,4,-1.3,-4
Cc1cc(=O)[nH]c(-c2ccccc2OC(F)(F)F)n1,3.4,i,-16,0.2,5,3,-4,0,-2.7,0
COc1cc(C(=O)Nc2cccc(-n3cnnn3)c2)cc(OC)c1OC,0.1,i,-1,-3.8,8,-3,-1,-3,1.4,·
CCC(=O)Nc1ccc(-c2nc(-c3ccccc3)n(CC(=O)N3CCCCC3)n2)cc1,0.8,·,-4,·,0,-1,·,·,·,-15
O=C(CCCSc1nc(-c2ccco2)cc(C(F)(F)F)n1)NCc1cccs1,1.0,·,27,·,-5,·,·,·,·,5
O=C(NCCCCNC(=O)c1ccccc1Br)c1ccccc1Br,-1.0,i,·,1.1,·,-6,10,1,2.7,-17
Cn1nc(C(F)(F)F)c(C(=O)Nc2ccc(C(F)(F)F)cc2)c1Cl,-3.3,·,-13,·,6,-20,·,·,·,-17
O=C(CNC(=O)c1ccco1)Nc1ccc(F)c(Cl)c1,-1.2,i,3,-3.2,·,2,19,13,5.6,-8
CCC(CC)C(=O)Nc1nnc(SCC(=O)N2CCN(c3ccccc3OC)CC2)s1,-2.9,·,-3,·,6,·,·,·,·,32
CCNc1nc(Oc2ccc(=O)n(C)n2)nc(N2CCOCC2)n1,1.4,·,-1,·,-5,-16,·,·,·,0
CCOc1ccccc1Nc1nc(-c2sc(NC(=O)c3ccc([N+](=O)[O-])cc3)nc2C)cs1,8.1,·,25,·,3,·,·,·,·,9
COc1ccccc1NC(=O)Nc1ccc(Br)cn1,6.2,·,-7,·,0,4,·,·,·,-3
O=C(c1ccccc1)c1cnc(-c2ccccc2)s1,-3.9,i,-7,1.1,-2,-2,8,10,5.8,-7
Cc1cc2cc(CNC(=O)c3ccc4c(c3)OCO4)ccc2n1C,-13,·,22,·,-6,-1,·,·,·,-19
COCCN1C(=O)N[C@@H](c2cccc(F)c2)C(C(C)=O)=C1C,2.7,·,-8,·,-4,2,·,·,·,-2
CCOC(=O)c1ccc(S(=O)(=O)N2CCN(C(=O)C3CSC4(C)CCC(=O)N34)CC2)cc1 (centres undefined),·,i,·,0.3,-6,-6,·,·,·,·
CC(C)Cn1c(N)c(C(=O)COC(=O)C2CC(=O)N(Cc3ccccc3Cl)C2)c(=O)n(C)c1=O (centres undefined),0.0,i,-4,0.5,-2,-42,-19,-26,1.0,23
Cc1cccc(Nc2nnc(SCC(=O)c3c(N)n(C4CC4)c(=O)[nH]c3=O)s2)c1,·,i,·,-0.7,0,-2,20,14,1.0,·
CCc1nc(N)c(C#N)c(-c2ccc(F)cc2)c1C,23*,·,4,·,-1,0,·,·,·,7
O=C(COC(=O)C1CCN(c2ccc(C(F)(F)F)cn2)CC1)NCc1ccccc1,·,i,·,-2.9,0,4,-7,-21,-3.6,·
Cn1cc(-c2nc3ccccc3[nH]2)c2ccccc21,-3.8,·,-3,·,15,1,·,·,·,4
O=C(Cc1ccccc1F)NCC(=O)Nc1ccccc1Br,5.2,i,-6,1.1,2,·,-5,-1,1.9,5
CCn1c(CNc2ccc(F)cc2)nnc1SCC(=O)Nc1ccc(OC)cc1OC,-3.7,i,7,-47,0,4,-11,1,0.7,-4
Cc1csc(NC(=O)CSc2ccc(-c3ccc(F)cc3)nn2)n1,2.9,i,8,-2.2,5,-12,-15,-14,3.7,-18
Cn1nc(C(F)(F)F)c(C(=O)Nc2ccc(F)cc2F)c1Oc1cccc(Cl)c1,?,·,4,·,-2,4,·,·,·,-13
COc1ccc(CCNC(=O)CN(c2ccc(OC)c(OC)c2)S(=O)(=O)c2ccc(C)cc2)cc1,-0.5,i,32,0.4,4,·,8,11,-1.2,-4
COCCOc1ccc(C(F)(F)F)cc1NC(=O)CN1C(=O)NC2(CCc3ccccc32)C1=O (centres undefined),·,i,6,-1.7,-7,7,-2,1,1.1,1
CSc1nc(N(C)NC(=O)c2ccc(F)cc2)c2ccccc2n1,3.2,·,1,·,15,2,·,·,·,0
CC(C)Cc1n[nH]c(=O)[nH]1,-1.2,·,-6,·,1,-1,·,·,·,-7
COc1ccccc1Oc1ccc2c(c1)C(=O)N(CC1CCCO1)C2=O (centres undefined),3.6,i,-18,-2.6,3,-1,-5,-12,-2.2,1
O=C(NCCS(=O)(=O)NCCc1ccccc1)c1ccc2c(c1)OCO2,4.1,i,-5,0.1,·,-6,8,2,0.9,-10
O=C(Nc1ccc(Cl)cc1C(F)(F)F)c1ccccc1Cl,-1.9,i,-9,-0.6,3,·,5,9,0.5,0
O=c1cc(-c2ccccc2)nc2nc(-c3ccccc3)[nH]n12,-2.0,·,9,·,-4,14,·,·,·,-5
CC(C)CN(CC(C)C)C1=N/C(=C\c2ccco2)C(=O)N1c1ccccc1,?,·,26,·,13,-9,·,·,·,4
N#Cc1cccnc1N1CCN(C(=O)c2cccs2)CC1,-0.6,i,-1,-37,6,5,4,10,-1.3,-3
O=C(NNS(=O)(=O)c1ccccc1F)c1cc(-c2ccccc2)n[nH]1,0.1,i,2,-15,1,72,-10,-5,-3.8,-6
O=C(CNC(=O)C1CCCCC1)NC1=NCCS1,?,·,-16,·,-12,-5,·,·,·,-9
Cc1ccc(CSCCNC(=O)CN2C(=O)c3ccccc3S2(=O)=O)cc1,?,i,-5,0.0,-7,·,-4,-6,0.0,0
COc1ccccc1Cn1c(=O)c2ccccc2n2c(SCc3csc(C)n3)nnc12,-0.1,i,36,0.7,11,-8,4,-2,3.7,6
Cc1cc(CNC(=O)COc2ccc(C)c(C)c2)c2ccccc2n1,-1.0,i,0,-3.0,-6,0,-25*,-4.5*,0.1*,8
COc1cc2c(cc1OC)C(CCc1ccccc1)=NCC2,12,i,19,6.2,3,·,0,-2,6.1,1
Cc1cc(C(=O)N/N=C/c2ccc3c(c2)OCO3)c2ccccc2n1,-4.4,i,·,-0.8,2,-21,21,10,2.8,-10
Cc1ncsc1CCOC(=O)c1cccc([N+](=O)[O-])c1,4.3&5.7,i,-8&-3,6.7,-2&-5,-6&-3,5,-2,-5.4,-1&-21
COc1ccccc1N1CC(C(=O)Nc2nnc(SCC(=O)N3CCOCC3)s2)CC1=O (centres undefined),?,i,9,-1.1,-6,-3,10,8,0.0,4
CSc1ccc(C#N)cc1NC(=O)c1cccc(Cl)c1,2.7,·,0,·,1,-15,·,·,·,17
Cc1cccc(OCC(=O)Nc2ccc(N3CCN(S(C)(=O)=O)CC3)cc2)c1C,-1.0,·,-10,·,9,1,·,·,·,-2
CCCCn1c(N)c(N(CCOC)C(=O)CSCc2ccc(Cl)c(Cl)c2)c(=O)[nH]c1=O,-2.8,i,1,0.1,-4,-9,-2,-9,0.7,6
O=C1c2ccccc2NC(c2ccccn2)N1c1ccccc1F (centres undefined),4.7,·,-6,·,-5,-2,·,·,·,0
# Next part:
SMILES,RanGTP-Imp inh,FGF22 binding,T cruzi repl,MLL AF4-AF9 inh,Beta apoptosis,ALR inh,Ecoli rRNA inh,Ecoli rRNA inh OD600,Ecoli rRNA inh RFP,Calb FLC
Nc1cc(S(=O)(=O)Nc2ccccc2Cl)ccc1N1CCCC1,-4.3,i,2,-2.5,9,99*,0,-8,-5.7,-4
O=C(CSc1nnc(CCCO)n1-c1ccccc1)Nc1nccs1,2.3,i,6,-0.8,-3,-6,4,13,0.4,21
COc1ccc(/C(C)=N/NC(=O)c2ccncc2)cc1[N+](=O)[O-],1.0,i,-9,1.2,-3,0,15,15,-0.2,-4
O=C(CN(CC1CCCO1)S(=O)(=O)c1ccc(S(=O)(=O)NCC2CCCO2)cc1)Nc1ccccc1 (centres undefined),0.9,i,-27,2.9,1,-5,14,7,-7.0,0
CCCn1cc(CN2CCC(Cc3ccccc3)(C(=O)OCC)CC2)c(C)n1,?,i,13,-0.8,-1,-2,8,9,-0.6,-32
CCOC(=O)N1CCN(S(=O)(=O)c2ccc(OCC(=O)OC)c(C)c2)CC1,2.0,·,-6,·,-5,-7,·,·,·,2
COCc1cccc(C(=O)NC(c2ccccc2)c2ccccc2)c1,?,i,-4,0.3,-1,-6,8,9,-0.3,-3
COc1ccc(Br)cc1CN(C)C(=O)c1ccccc1OCc1c(C)noc1C,-1.7,i,8,-11,6,-1,2,3,-0.8,-5
Cc1cccc(C(=O)N[C@H](C(=O)OCc2cc(=O)n3c(n2)sc2ccccc23)C(C)C)c1,2.8,i,12,3.9,0,-32,·,·,·,-2
O=C(NCc1cccnc1)c1cccc(S(=O)(=O)N2CCCC2)c1,-1.9,i,2,-24,-2,-9,4,7,-2.8,-5
O=C(CSc1ccc(Cl)cc1)NC1=NN(c2ccccc2)C(=O)C1,0.4,i,-9,-1.8,0,-11,3,0,-5.4,-5
Cc1cc(SCC(=O)NCC2CCCO2)nc2ccccc12 (centres undefined),-6.7,i,-7,0.3,2,-7,15,0,0.1,-5
CN(C)CCCN(C(=O)c1ccc2c(c1)OCCO2)c1nc2cc3c(cc2s1)OCO3,2.5,i,36,4.9,-13,-3,11,13,3.7,2
CCOC(=O)N1CCC2(CC1)C(C#N)=C(N)Oc1c2c(C)nn1-c1cccc(Cl)c1,5.1,i,-22,2.2,-3,0,-1,0,5.4,-9
